SMN2 splice enh = SMN2 splice variant enhancement; HEK293 SMN2-luciferase splicing reporter, luminescence, 30-36 h; Potency, µM (series often up to 46.1 µM), inactives show top-dose activity change, positive = activation, usual class: activators; hit rate 2.8% among 210,000; AID 1458; further: % of control where 0% means no effect; nearly all actives have a fitted effect of over 55% in size
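HEK293 cells carry an SMN2 minigene-luciferase reporter in which exon 7 inclusion puts luciferase in frame. Cells were seeded at 2000 cells/well, attached for 10-12 hours, then exposed to compounds for 30-36 hours at 37C before ONE-Glo luminescence.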
Lamin A splicing = LMNA splicing modulation. HeLa LMNA splicing GFP/RFP minigene ratio, 48 h. Potency, µM (highest dose often 46.1 µM), without a hit: at the top dose ratio change, negative = inhibition, actives largely listed as inhibitors. hit rate 0.01% among 200,000. AID 1487; active means well fitted inhibition curve with a large enough effect in the signal ratio, with a control signal flat, not every such curve was filed as active; inconclusive means small, poorly fitted or top-dose-only effect, or effect the other way, or a change in a side signal; the % refers to the signal ratio; further: on the % scale 0 is the no-effect control and ±100 the full control effect
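Read-out is the ratio of GFP to DsRed2 object intensity, acquired by 488 nm laser-scanning cytometry on HeLa lamin A-EGFP minigene reporter cells. Compound incubation 48 hrs at 37 °C in Opti-MEM with 2% FBS; DMSO 0.5% final.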
KDM4E inh = JMJD2E (human) inhibition; JMJD2E catalytic domain, FDH-coupled NADH fluorescence (FDH is formaldehyde dehydrogenase); B2RXH2; Potency, µM (series often up to 57.1 µM), without a hit: top-dose activity change, negative = inhibition, hits mostly inhibitors; hit rate 1.6% among 230,000; active means well fitted inhibition curve with a large enough effect, not every such curve was filed as active; inconclusive means small, poorly fitted or top-dose-only effect, or another doubt; inactive means no such curve, though single readings can be large or run the other way;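 further: 0% = wells with enzyme and -100% = buffer wells without enzyme; nearly all actives have a fitted effect of over 50% in size; many of its hits are not listed in these tables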
GoLoco inh red = inhibitors of human Gai1-RGS12 GoLoco interaction (red fluorophore). P63096. Potency, µM (highest dose often 61.6 µM), for inactives: at the highest dose activity, negative = inhibition, hits mostly inhibitors. Gai1:RGS12 GoLoco peptide FP, rhodamine, 10 min. hit rate 0.44% among 230,000; active means well fitted inhibition curve with a large enough effect, not every such curve was filed as active; inactive means no such curve, though single readings can be large or run the other way; further: on the % scale 0 is the no-effect control and ±100 the full control effect; nearly all actives have a fitted effect of over 30% in size; many of its hits are not listed in these tables
RECQ1 inh = inhibitors of human RECQ1 DNA helicase | P46063 | hit rate 0.54% among 240,000 | Potency, µM (top dose mostly 57.3 µM), inactives show top-dose activity, negative = inhibition, most hits filed as inhibitors | RECQ1 DNA unwinding, red fluorescence kinetic read;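 further: plate controls were vehicle for no effect and no enzyme for full effect; nearly all actives have a fitted effect of over 30% in size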
Target sequence (P46063 whole entry, looked up): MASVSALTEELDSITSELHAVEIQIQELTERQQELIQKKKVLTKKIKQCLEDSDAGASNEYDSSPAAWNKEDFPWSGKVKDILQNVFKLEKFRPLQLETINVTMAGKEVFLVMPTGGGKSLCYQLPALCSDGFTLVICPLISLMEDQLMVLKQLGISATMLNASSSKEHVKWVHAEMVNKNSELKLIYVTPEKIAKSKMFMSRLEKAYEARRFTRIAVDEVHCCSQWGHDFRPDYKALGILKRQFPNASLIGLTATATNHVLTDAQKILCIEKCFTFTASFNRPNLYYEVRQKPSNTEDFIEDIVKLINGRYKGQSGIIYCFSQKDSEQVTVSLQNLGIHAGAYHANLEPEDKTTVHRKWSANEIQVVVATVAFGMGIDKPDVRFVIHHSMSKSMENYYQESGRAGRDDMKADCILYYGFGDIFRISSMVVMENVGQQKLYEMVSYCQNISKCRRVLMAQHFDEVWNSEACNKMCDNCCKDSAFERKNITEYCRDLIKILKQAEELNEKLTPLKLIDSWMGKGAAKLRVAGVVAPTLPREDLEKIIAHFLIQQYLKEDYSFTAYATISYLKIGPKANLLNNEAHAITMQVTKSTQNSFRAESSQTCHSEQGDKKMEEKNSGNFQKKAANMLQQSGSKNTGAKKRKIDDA
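50 nM RECQ1T1 preincubated 15 min with compound in Tris pH 8.0 buffer with MgCl2, DTT, Tween-20 and 2.5 ug/ml poly(dI-dC); started with 200 nM TAMRA/BHQ-2 forked duplex and 2 mM ATP. Unwinding read as fluorescence (525/598 nm), two reads 2 h apart.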
Starred values were filed as active, the others as inactive; i = inactive; ? = inconclusive; nt = not tested or not shown; & = joins results of further samples; ! = a repeat was not active; [ ] = remark or other dose. Unless noted, the call rests on the fitted dose curve; in most records, active means well fitted curve in the direction sought with a large enough effect; inconclusive means small, poorly fitted or top-dose-only effect, or another doubt; inactive means no such curve, though single readings can be large; an effect the other way counts as inactive or inconclusive. Potency means the concentration at half of the fitted maximal effect. This is a subset (hit frequency here may not be typical).

1	C#CC[N+]1(C)C2CCC1CC(O)C2 (stereo not given)
2	Clc1ccc(CO[C@@H](Cn2ccnc2)c2ccc(Cl)cc2Cl)cc1
3	C[C@@H](Cc1ccccc1)NCCC(c1ccccc1)c1ccccc1
4	CC(=O)[C@@]1(O)CC[C@H]2[C@@H]3CCC4=CC(=O)CC[C@]4(C)[C@H]3CC[C@@]21C
5	NC(N)=NC(=O)c1nc(Cl)c(N)nc1N
6	O=c1[nH]c(O)c(/C=C2\C=NN=C2c2ccccc2)c(=O)[nH]1
assay / compound | 1 | 2 | 3 | 4 | 5 | 6
SMN2 splice enh | ? | -10%[20.6 µM] | 10%[20.6 µM] | -62%[inhibitor] | -32% | -13%
Lamin A splicing | ? | ? | ? | ? | ? | -2%
KDM4E inh | 4% | 0%[25.5 µM] | -2%[25.5 µM] | 1% | ? | -8%
GoLoco inh red | -4% | 6%[21.6 µM] | 141%[activator][21.6 µM] | 6% | -11% | 4%
RECQ1 inh | -2% | -5%[25.9 µM] | 0%[25.9 µM] | -5% | 6% | -3%

Shown with values under each structure: entries from further up.
The line under a structure holds: SMN2 splice enh, Lamin A splicing, KDM4E inh, GoLoco inh red, RECQ1 inh
1. C#CC[N+]1(C)C2CCC1CC(O)C2 (stereo not given)
  ?, ?, 4%, -4%, -2%
2. Clc1ccc(CO[C@@H](Cn2ccnc2)c2ccc(Cl)cc2Cl)cc1
  -10%[20.6 µM], ?, 0%[25.5 µM], 6%[21.6 µM], -5%[25.9 µM]
3. C[C@@H](Cc1ccccc1)NCCC(c1ccccc1)c1ccccc1
  10%[20.6 µM], ?, -2%[25.5 µM], 141%[activator][21.6 µM], 0%[25.9 µM]
4. CC(=O)[C@@]1(O)CC[C@H]2[C@@H]3CCC4=CC(=O)CC[C@]4(C)[C@H]3CC[C@@]21C
  -62%[inhibitor], ?, 1%, 6%, -5%
5. NC(N)=NC(=O)c1nc(Cl)c(N)nc1N
  -32%, ?, ?, -11%, 6%

Of the compounds above, three have nitrogen in an aromatic ring.
2	Clc1ccc(CO[C@@H](Cn2ccnc2)c2ccc(Cl)cc2Cl)cc1
5	NC(N)=NC(=O)c1nc(Cl)c(N)nc1N
6	O=c1[nH]c(O)c(/C=C2\C=NN=C2c2ccccc2)c(=O)[nH]1
assay / compound | 2 | 5 | 6
SMN2 splice enh | -10%[20.6 µM] | -32% | -13%
Lamin A splicing | ? | ? | -2%
KDM4E inh | 0%[25.5 µM] | ? | -8%
GoLoco inh red | 6%[21.6 µM] | -11% | 4%
RECQ1 inh | -5%[25.9 µM] | 6% | -3%

The listing continues:
7	C=C(C)C(=O)OCC1CO1 (stereo not given)
8	CN[C@@H](C)[C@H](O)c1ccccc1
9	O=C1CCCN1c1ccc(S(=O)(=O)O)cc1 (tested in a mixture with another compound)
10	C[C@H]1CCC[C@H](O)CCCCCc2cc(O)cc(O)c2C(=O)O1
11	CN1CC[C@@]23CCCC[C@@H]2[C@@H]1Cc1ccc(O)cc13
12	O=C(O)/C=C\C(=O)O
assay / compound | 7 | 8 | 9 | 10 | 11 | 12
SMN2 splice enh | 11% | -9% | -3%[1.84 µM] | -47%&5%[inhibitor] | -55%[inhibitor] | 5%
Lamin A splicing | nt | ? | -9% | ? | ? | nt
KDM4E inh | nt | 3.5µM* | -1% | 5% | -3% | nt
GoLoco inh red | 8% | 2µM* | 0% | 3%&-3% | 5% | 3%
RECQ1 inh | 3% | -4% | -2% | -13%&-3% | -2% | -8%

13	c1ccc2c(CN3CCCCCCC3)c[nH]c2c1
14	CCOP(=O)(OCC)C(NC(=O)c1ccccc1C)C(Cl)(Cl)Cl (stereo not given)
15	CC(=O)c1c(O)n(C2CCCCCC2)c(=O)[nH]c1=O
16	O=c1[nH]c(=O)n(-c2cccc3ccccc23)c(O)c1/C=N/N1CCCCC1c1cccnc1 (stereo not given)
17	CN1[C@@H]2CC[C@H]1CC(OC(=O)c1cc(Cl)cc(Cl)c1)C2 (stereo not given in full)
18	Cc1cc(NC(=O)c2noc3c2CCCCC3)no1
assay / compound | 13 | 14 | 15 | 16 | 17 | 18
SMN2 splice enh | -28% | -2% | 6% | -21% | nt | ?
Lamin A splicing | ? | -3% | -4% | -3% | nt | ?
KDM4E inh | 3% | -2% | 0% | ? | 13% | 1%
GoLoco inh red | 6% | -12% | 17% | 53%[activator] | -5% | -9%
RECQ1 inh | i | -1% | i | -5% | -2% | i

19	Cc1nn(Cc2ccccc2)c(Cl)c1C(=O)OC(C)C(=O)Nc1ccc(F)cc1Cl (stereo not given)
20	CCCCOC(=O)c1ccccc1N
21	Cc1cccn2c(NCC3CCCO3)c(C(C)C)nc12 (stereo not given)
22	O=C(OC1CCN(CCCl)CC1)C(c1ccccc1)c1ccccc1
23	CCOc1cc(-c2nc3c(C)cccn3c2NCC2CCCO2)ccc1O (stereo not given)
24	COc1cc(C(=O)Nc2ccc(Br)cc2C(=O)c2ccccc2)cc(OC)c1OC
assay / compound | 19 | 20 | 21 | 22 | 23 | 24
SMN2 splice enh | -24% | -6% | 14% | -16% | -7% | -8%
Lamin A splicing | ? | nt | 0% | ? | -4% | 17%
KDM4E inh | -5% | nt | ? | 0% | ? | 6%
GoLoco inh red | -1% | 1% | -8% | 9% | 5% | 1%
RECQ1 inh | -6% | -7% | i | i | -6% | -7%

25	Cc1ccc(N(C)C(=O)Oc2cccc3cccnc23)cc1
26	Cn1cc(C(=O)NCc2ccccc2)c2ccccc21
27	NC(Cc1ccc(N(CCCl)CCCl)cc1)C(=O)O (stereo not given)
28	CCOP(=O)(NC(C)C)Oc1ccc(SC)c(C)c1 (stereo not given)
29	CC1CCC[C@H](O)CCCCCc2cc(O)cc(O)c2C(=O)O1 (stereo not given in full)
30	CC(N)Cc1c[nH]c2ccc(O)cc12 (stereo not given)
assay / compound | 25 | 26 | 27 | 28 | 29 | 30
SMN2 splice enh | 15% | -2% | 9%&-38% | 9% | -39%[inhibitor] | -6%&2%
Lamin A splicing | -9% | -2%[46 µM] | ? | nt | ? | -22%
KDM4E inh | -2% | -2% | 20µM*! | nt | -4%&-16% | 0%
GoLoco inh red | -1% | 3% | 6%&-3% | -4% | 7%&-13% | 11%&2%
RECQ1 inh | -1% | -2% | -9%&8% | -3% | 18%&-2% | -3%&7%

Records 26 through 27, reprinted for reference:
26	Cn1cc(C(=O)NCc2ccccc2)c2ccccc21
27	NC(Cc1ccc(N(CCCl)CCCl)cc1)C(=O)O (stereo not given)
assay / compound | 26 | 27
SMN2 splice enh | -2% | 9%&-38%
Lamin A splicing | -2%[46 µM] | ?
KDM4E inh | -2% | 20µM*!
GoLoco inh red | 3% | 6%&-3%
RECQ1 inh | -2% | -9%&8%

Bioassay records deposited in PubChem BioAssay by National Center for Advancing Translational Sciences (NCATS).
